MITF inhib: inhibitors of MITF, primary screen, MITF inhibitor project, cell-based, luminescence; TRPM1 promoter luciferase, 24 h; inhibition, % (concentration not given with the values); actives 0.28% (n = 37,000); AID 2240, 2010;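 active = most replicates at 85% or more, or half of them and the mean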;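 also: human melanocyte line stably carrying TRPM1 promoter luciferase reporter; 0% = vehicle wells and 100% = a positive control; the first replicate is given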
Shh pathway inh: Hedgehog pathway signaling inhibitors, primary screen, luminescence, Shh-LIGHT2 cells, Gli-luciferase. Shh-LIGHT2 Gli-luciferase reporter, 30 h. inhibition, % (test concentration not listed). actives 2.1% (n = 22,000). AID 2313, 2010;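 active = replicate mean of 65% or more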;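 also: pathway switched on by Shh-conditioned medium diluted 1 in 25 in low serum; 100 nL library stock added to about 40 µL; 0% = median of neutral wells and 100% = positive control level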
PD-1 reversal: activators reversing PD-1 mediated T-cell inhibition, primary screen, luminescence, primary human CD4 T cells, PD-L1 beads. CellTiter-Glo 96 h. activation, % (no concentration beside the values). 29,000 tested, under 10 active;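 active = replicate mean of 50% or more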;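 also: 0% = median vehicle wells and 100% = positive control; 100 nL library stock added to about 50 µL; numbers are from one replicate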
YB-1 expression: inhibitors of YB-1 gene expression, primary screen, cell-based, fluorescence; U2OS, qRT-PCR YB-1 vs CDIP delta delta Cp, 16 h; stronger effect = higher value; zero = DMSO, each unit about twofold; delta delta Cp (YB-1 minus CDIP) (test concentration not listed); actives 0.37% (n = 30,000);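 active = delta delta Cp rounded down to an integer at or above 3, about 3 SD of DMSO wells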;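 also: higher means less YB-1 transcript or more CDIP transcript relative to DMSO; stock transfer was 100 nL into about 100 µL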
The depositor's hits bear a star; . = no result given.

Sequence of screens: PD-1 reversal, MITF inhib, YB-1 expression, Shh pathway inh
C[C@@H]1CN([C@@H](C)CO)C(=O)c2cc(NS(=O)(=O)c3cccs3)ccc2O[C@@H]1CN(C)C(=O)Nc1ccc(C(F)(F)F)cc1
    -0.3, -4, -0.09, .
COc1ccc(S(=O)(=O)Nc2ccc3c(c2)CC(=O)N([C@@H](C)CO)C[C@@H](C)[C@@H](CN(C)S(=O)(=O)c2ccccc2)O3)cc1
    1.5, -2, -0.16, 18
CNC[C@@H]1Oc2c(NC(=O)c3ccc(-c4nccs4)cc3)cccc2C(=O)N([C@@H](C)CO)C[C@H]1C
    -0.2, 0, 0.27, -34
C[C@H]1CN([C@@H](C)CO)C(=O)c2cc(NC(=O)Cn3cnnn3)ccc2O[C@H]1CN(C)C(=O)Nc1ccc2c(c1)OCO2
    5.4, 0, 0.48, .
CCOC(=O)c1ccc(NC(=O)CC2Nc3cccc4cccc(c34)NC2=O)cc1 (centres undefined)
    -6.2, 50, ., .
Cc1noc(C)c1NC(=O)N(C)C[C@@H]1Oc2ccc(NC(=O)Nc3ccccc3)cc2C(=O)N([C@H](C)CO)C[C@H]1C
    0.5, -2, 0.19, -11
CN(C)c1ccc(/C=C2/C(=O)Nc3ccccc32)cc1
    -0.1, -40, -0.3, -21
C[C@H](CO)N1C[C@H](C)[C@H](CN(C)Cc2ccc3c(c2)OCO3)Oc2ccc(NC(=O)Cc3cn(C)c4ccccc34)cc2C1=O
    -1.9, 16, 0.25, 24
CCOc1ccc2nc(SCC(=O)Nc3ccc(Br)cc3Cl)sc2c1
    -0.5, -6, ., .
COc1ccc(S(=O)(=O)N(C)C[C@H]2Oc3ccc(NC(=O)CCC(F)(F)F)cc3C(=O)N([C@@H](C)CO)C[C@@H]2C)cc1
    1.0, 8, 0.48, .

Rewritten tab-delimited: two of the compounds above.
smiles	PD-1 reversal	MITF inhib	YB-1 expression	Shh pathway inh
C[C@H](CO)N1C[C@H](C)[C@H](CN(C)Cc2ccc3c(c2)OCO3)Oc2ccc(NC(=O)Cc3cn(C)c4ccccc34)cc2C1=O	-1.9	16	0.25	24
CCOc1ccc2nc(SCC(=O)Nc3ccc(Br)cc3Cl)sc2c1	-0.5	-6	.	.

Next part
Sequence of screens: PD-1 reversal, MITF inhib, YB-1 expression, Shh pathway inh
Cc1ccccc1Cn1ccc(NC(=O)c2nn3cccnc3c2Cl)n1
    0.5, -70, ., .
C[C@H]1CN([C@@H](C)CO)C(=O)Cc2cc(NC(=O)CCC(F)(F)F)ccc2O[C@H]1CN(C)Cc1ccc(C(F)(F)F)cc1
    -1.5, 13, -0.35, 1
COc1ccc(CCNc2nc(-c3ccccn3)cs2)cc1OC
    -6.8, 14, ., .
CN(C)CCNC(=O)C12CC3(C)CC(C)(CC(C)(C3)C1)C2
    -0.4, -7, -0.21, 9
OCCN1CCN(C(=S)NCc2ccco2)CC1
    2.0, -8, ., .
C[C@@H]1CN([C@@H](C)CO)C(=O)c2cccc(NC(=O)Nc3ccc(F)cc3)c2O[C@@H]1CN(C)Cc1ccc2c(c1)OCO2
    -1.3, -27, 0.72, 2
C[C@H]1CN([C@@H](C)CO)C(=O)c2cc(NS(=O)(=O)c3ccccc3)ccc2O[C@H]1CN(C)Cc1ccncc1
    -1.4, -14, 0.097, -21
COc1c(Cl)cc(C(=O)Nc2ccc(S(=O)(=O)Nc3cc(C)nc(C)n3)cc2)cc1Cl
    1.0, 4, ., .
COc1ccc(S(=O)(=O)N(C)C[C@@H]2Oc3ccc(NC(=O)Nc4ccccc4)cc3C(=O)N([C@@H](C)CO)C[C@H]2C)cc1
    -0.5, -14, -0.29, .
CNC[C@H]1Oc2ccc(NS(=O)(=O)c3ccccc3)cc2C(=O)N([C@H](C)CO)C[C@@H]1C
    0.2, 11, -0.35, 15
COc1cc(O)cc(C)c1C(=O)OC1C(CO)OC(n2ccc(=O)[nH]c2=O)C1OC(C)=O (centres undefined)
    -0.4, 4, -0.47, -6
C[C@@H]1CN([C@@H](C)CO)C(=O)Cc2cc(NC(=O)Nc3ccc4c(c3)OCO4)ccc2O[C@@H]1CN(C)Cc1ccc(-c2ccccc2)cc1
    1.2, 21, -0.003, -11
COc1ccc(S(=O)(=O)N(C)C[C@H]2Oc3c(NS(C)(=O)=O)cccc3C(=O)N([C@H](C)CO)C[C@H]2C)cc1
    0.1, -3, 0.011, -52
COc1cccc(C(=O)COc2ccc(NC(=O)c3ccccc3C)cc2)c1
    -0.7, -20, ., .
COc1ccc(-c2nnc(SCC(=O)Nc3ccc(Br)cc3C(C)C)o2)cc1
    2.9, -7, ., .
C[C@@H]1CN([C@@H](C)CO)C(=O)c2cccc(NC(=O)c3cnccn3)c2O[C@H]1CN(C)C(=O)Nc1ccc(C(F)(F)F)cc1
    -0.3, -5, -0.052, -29
CC(=O)OCC(=O)[C@@]1(O)[C@H](C)C[C@H]2[C@@H]3CCC4=CC(=O)C=C[C@]4(C)[C@@]3(F)[C@@H](O)C[C@@]21C
    -2.7, -47, 0.23, 82*
C[C@H]1CN([C@@H](C)CO)C(=O)c2cccc(NC(=O)NC3CCCCC3)c2O[C@@H]1CN(C)C(=O)Nc1cccc2ccccc12
    -0.7, -6, 0.38, 12
C[C@@H]1CN([C@H](C)CO)C(=O)Cc2cc(NC(=O)Cc3cn(C)c4ccccc34)ccc2O[C@@H]1CN(C)S(=O)(=O)c1ccc(F)cc1
    0.2, 21, -0.23, 17
COc1ccc(COCC(O)CS(=O)(=O)c2ccc(OC)c(OC)c2)cc1 (centres undefined)
    0.5, 1, 0.14, -43

Compound profiles, as listed above. Screens in order: PD-1 reversal | MITF inhib | YB-1 expression | Shh pathway inh
CC(=O)OCC(=O)[C@@]1(O)[C@H](C)C[C@H]2[C@@H]3CCC4=CC(=O)C=C[C@]4(C)[C@@]3(F)[C@@H](O)C[C@@]21C across the screens: -2.7 | -47 | 0.23 | 82*
C[C@@H]1CN([C@H](C)CO)C(=O)Cc2cc(NC(=O)Cc3cn(C)c4ccccc34)ccc2O[C@@H]1CN(C)S(=O)(=O)c1ccc(F)cc1 across the screens: 0.2 | 21 | -0.23 | 17
COc1ccc(-c2nnc(SCC(=O)Nc3ccc(Br)cc3C(C)C)o2)cc1 across the screens: 2.9 | -7 | . | .
COc1cccc(C(=O)COc2ccc(NC(=O)c3ccccc3C)cc2)c1 across the screens: -0.7 | -20 | . | .

Further records.
Sequence of screens: PD-1 reversal, MITF inhib, YB-1 expression, Shh pathway inh
C[C@@H]1CN([C@H](C)CO)C(=O)c2cccc(NC(=O)Nc3ccccc3)c2O[C@@H]1CN(C)C(=O)Nc1cccc2ccccc12
    0.2, -4, -0.76, -45
Cc1ccc(C)c(NC(=O)C(C)N(c2ccc(C)c(C)c2)S(C)(=O)=O)c1 (centres undefined)
    -0.2, 2, ., .
C[C@@H]1CN([C@H](C)CO)C(=O)c2cc(NC(=O)Cc3ccccc3)ccc2O[C@H]1CN(C)Cc1ccc2c(c1)OCO2
    1.1, 3, 0.18, .
C[C@H](CO)N1C[C@H](C)[C@H](CN(C)C(=O)Nc2ccc(F)cc2)Oc2ccc(NC(=O)CCCN(C)C)cc2C1=O
    0.2, 10, 0.22, -13
Cc1cc(C)c(OCC(O)CN2CCN(CCO)CC2)c(C)c1 (centres undefined)
    0.9, -1, ., .
COc1ccc(S(=O)(=O)N(C)C[C@@H]2Oc3c(NC(=O)Nc4cccc5ccccc45)cccc3C(=O)N([C@@H](C)CO)C[C@@H]2C)cc1
    0.3, 2, -0.048, -1
C[C@H]1CN([C@@H](C)CO)C(=O)c2cccc(NC(=O)Nc3ccccc3)c2O[C@@H]1CN(C)S(=O)(=O)c1cn(C)cn1
    2.3, -4, 0.037, -34
O=C(O)CCCc1ccccc1
    ., -14, -0.26, -33
C[C@@H]1CCCCO[C@@H](CN(C)Cc2ccc(C(=O)O)cc2)[C@@H](C)CN([C@H](C)CO)C(=O)c2cc(NC(=O)NC3CCCCC3)ccc2O1
    1.3, -21, -0.12, 1
Cc1ccc(N(CC(N)=O)S(=O)(=O)c2ccc(Cl)cc2)cc1C
    -4.2, -8, ., .
C[C@@H]1CCCCO[C@@H](CN(C)CC2CCCCC2)[C@@H](C)CN([C@H](C)CO)C(=O)c2cc(NC(=O)c3ccncc3)ccc2O1
    0.8, 3, 0.41, -7
O=c1[nH]c2cc(C(F)(F)F)ccc2n1-c1cc(C(F)(F)F)ccc1O
    ., 19, -0.53, 12
C[C@H](CO)N1C[C@H](C)[C@@H](CN(C)C(=O)Nc2cccc3ccccc23)Oc2c(NS(=O)(=O)c3ccccc3)cccc2C1=O
    ., 18, -0.11, 27
O=C(Nc1cscc1S(=O)(=O)c1ccccc1)c1ccccc1Cl
    0.6, 10, -0.19, -10
Cc1ccccc1NC(=O)CSc1nc(O)cc(=O)[nH]1
    1.7, 0, ., .
CCn1c(SCC(=O)Nc2ccc(C)c(C)c2)nnc1-c1ccc(Cl)cc1
    -3.2, -3, ., .
COc1ccc(S(=O)(=O)Nc2cccc3c2O[C@@H](CN(C)Cc2ccccc2)[C@@H](C)CN([C@@H](C)CO)C3=O)cc1
    ., -2, 0.13, -15
COC(=O)c1ccc(Cl)c(NC(=O)CN2CCOCC2)c1
    1.8, -7, ., .
C[C@@H]1CN([C@H](C)CO)C(=O)Cc2cc(N(C)C)ccc2O[C@H]1CN(C)C(=O)NC1CCCCC1
    0.8, 5, -0.11, 7
CNC[C@@H]1Oc2ccc(NC(=O)Cc3cn(C)c4ccccc34)cc2CC(=O)N([C@@H](C)CO)C[C@@H]1C
    0.4, -1, 0.18, 6
C[C@H]1CN([C@@H](C)CO)C(=O)c2cc(NS(=O)(=O)c3ccc(Cl)cc3)ccc2O[C@H]1CN(C)C(=O)Nc1ccccc1
    -2.3, -9, -0.63, .
C[C@H]1CN([C@@H](C)CO)C(=O)Cc2cc(NC(=O)c3ccncc3)ccc2O[C@H]1CN(C)Cc1ccc(-c2ccccc2)cc1
    ., 33, 0.33, 24
COc1ccc(OCC(=O)Nc2ccc3oc(-c4ccc(C)c(C)c4)nc3c2)cc1
    -3.2, -35, ., .
O=C(CNS(=O)(=O)c1ccccc1)Nc1cccc(F)c1
    -1.1, -28, ., .
O=[N+]([O-])c1ccc(NCCNS(=O)(=O)c2ccc(Br)cc2)cc1
    -1.4, 0, ., .
C[C@H](CO)N1C[C@H](C)[C@H](CN(C)S(=O)(=O)c2ccc(Cl)cc2)Oc2c(NS(=O)(=O)c3cn(C)cn3)cccc2C1=O
    1.3, -7, 1.2, -45
Cc1noc(C)c1NC(=O)N(C)C[C@@H]1Oc2ccc(N(C)C)cc2C(=O)N([C@@H](C)CO)C[C@@H]1C
    -0.2, 3, 0.19, .
Cc1ccc(OCC(=O)Nc2ccc3oc(-c4ccccc4C)nc3c2)c(C)c1
    1.3, -105, ., .
C[C@@H]1CN([C@H](C)CO)C(=O)c2cccc(NS(C)(=O)=O)c2O[C@H]1CN(C)C(=O)Nc1ccc(F)cc1
    -0.4, -4, -0.081, 31
Cc1ccc(S(=O)(=O)N(C)C[C@@H]2Oc3ccc(NC(=O)Nc4c(C)noc4C)cc3C(=O)N([C@H](C)CO)C[C@H]2C)cc1
    0.8, -20, -0.27, .
Cn1c(Cc2ccc(Cl)cc2)nnc1SCc1nc2ccccc2c(=O)n1-c1cccc(C(F)(F)F)c1
    -1.9, 15, ., .
COc1ccc(S(=O)(=O)Nc2ccc3c(c2)C(=O)N([C@H](C)CO)C[C@H](C)[C@H](CN(C)Cc2ccc4c(c2)OCO4)O3)cc1
    1.1, -4, -0.23, 5
C[C@H](CO)N1C[C@H](C)[C@@H](CN(C)C)Oc2ccc(NC(=O)CCCN(C)C)cc2C1=O
    1.5, 12, 0.16, 0
Cc1cc(C)c(S(=O)(=O)N(C)CC(=O)Nc2cc(Cl)ccc2C)c(C)c1
    -2.1, 11, ., .
COc1ccc(NC(=O)N(C)C[C@@H]2Oc3ccc(NC(=O)Nc4ccc(C(F)(F)F)cc4)cc3C(=O)N([C@@H](C)CO)C[C@@H]2C)cc1
    -1.8, -5, -0.5, .
COc1ccc(S(=O)(=O)Nc2ccc3c(c2)C(=O)N([C@@H](C)CO)C[C@H](C)[C@@H](CN(C)C(=O)Nc2cccc4ccccc24)O3)cc1
    0.7, 5, -0.08, -24
COc1cc(O)c(C(=O)/C=C/c2ccc(OC)c(OC)c2)c(OC)c1
    0.1, -35, -0.15, 5
CC[n+]1ccc(C)c2cc(C(F)(F)F)ccc21
    1.2, 6, -1.1, .
C[C@@H]1CN([C@@H](C)CO)C(=O)Cc2cc(NC(=O)C3CC3)ccc2O[C@@H]1CN(C)Cc1ccc2c(c1)OCO2
    0.4, -4, 0.13, 24
C[C@H]1CN([C@@H](C)CO)C(=O)c2cc(NC(=O)Cc3ccccc3)ccc2O[C@H]1CN(C)Cc1ccc(Cl)c(Cl)c1
    -1.2, 8, -0.29, -20
COC(=O)c1c(NC(=S)Nc2cnccn2)sc2c1CCC(C)C2 (centres undefined)
    -3.5, -16, ., .
CC(Oc1ccc(C(C)(C)C)cc1)c1nc(-c2ccccn2)no1 (centres undefined)
    -3.0, 3, ., .

From PubChem BioAssay

Some of the compounds tested, so the mix of outcomes need not match the whole.
